# Source: PubChem
# H5N1 antiviral – MDCK cell protection from H5N1 avian flu; cytopathic effect, luminescence, 72 h; active compounds read high; no value below 0 was filed and about half of the inactive calls have no number; reference of the scale not given here; inhibition, % at 50 µM; 0.07% of 96,000 active; in the data active means inhibition above about 25%
# An asterisk follows results filed as active; i = inactive.
SMILES,H5N1 antiviral
C=C(C)COc1ccc(-c2nc(N)nc(C)c2Oc2ccccc2OC)c(O)c1,0.2
N#Cc1ccc(NC(=O)COC(=O)CNC(=O)C2CCCCC2)cc1,0.1
CN(CC(=O)NCCN1CCN(c2ccccc2)CC1)S(=O)(=O)c1ccc2c(c1)CCC(=O)N2,0.9
O=C(NC1CCCc2ccccc21)C1CCCN(S(=O)(=O)c2cnc[nH]2)C1 (stereo unspecified),0.2
CCOC(=O)c1ccccc1NS(=O)(=O)c1ccc(OCC)cc1,i
COc1ccc(-c2nnn(CC(=O)N(Cc3ccccc3Cl)C(C(=O)NCC3CCCO3)c3ccco3)n2)cc1 (stereo unspecified),0.2
CCC(=O)Nc1cc(=O)[nH]c2ncnn12,1.2
N#Cc1nc(COc2ccc(Cl)cc2Cl)oc1N1CCN(c2ccccc2)CC1,0.9
Cc1cc(C)c2c(CC(=O)O)coc2c1,0.1
CCOC(=O)c1cc2c3ccccc3n(CC)c2nc1N,i
COc1ccc(N=Nc2cnc(C)nc2-c2ccccc2)cc1,i
Cc1nn(Cc2c(Cl)cccc2Cl)c(Cl)c1/C=C/C(=O)OCC(=O)NCC(F)(F)F,i
Cc1nc2cc3nc(C)sc3cc2s1,1.0
CCOc1ccc2nc(NS(=O)(=O)c3ccc4c(c3)n(C)c(=O)n4C)sc2c1,i
Cc1ccc(C)c2[nH]c(=O)c(CCNC(=O)C(C)(C)C)cc12,i
COc1ccc2[nH]c(=O)c(CN(Cc3cccs3)S(=O)(=O)c3cccc4nsnc34)cc2c1,i
CCn1c(SCC(=O)NCc2cccs2)nnc1-c1ccncc1,0.5
CC(C)Cn1c(-c2ccccc2)nc2ccccc2c1=O,1.5
O=S1(=O)C=C(N2CCCCC2)c2ccccc21,i
CC(C)(C)NC(=O)C(=O)N/N=C/c1cccs1,0.8
Cc1ccc(NC(=O)CSc2nnc(Cn3cnc4ccccc43)o2)cc1,0.5
COc1ccc(Cl)cc1NC(=O)c1ccoc1C,15
COc1ccc(NC(=S)Nc2cccc([N+](=O)[O-])c2)cc1,i
CCOC(=O)CSc1nc(N2CCOCC2)c2c(c1C#N)CC(C)(C)N(C)C2,1.2
COC(=O)Cn1cccc1C(=O)c1ccccc1,i
Cc1ccc(S(=O)(=O)N2CCN(S(=O)(=O)c3ccccc3)C2c2ccc(N(C)C)cc2)cc1 (stereo unspecified),i
O=C(NCc1ccc(N2CCCC2=O)cc1)Nc1cccc2ccccc12,i
CCOc1ccc(N2CC(C(=O)Nc3ccc(S(=O)(=O)Nc4ncccn4)cc3)CC2=O)cc1 (stereo unspecified),i
Cc1ccc(-c2nnn(CC(=O)N(CC3CCCO3)C(C(=O)NC(C)(C)C)c3ccc(F)cc3)n2)o1 (stereo unspecified),i
c1ccc(-c2nc(-c3ccncc3)no2)cc1,0.5
CCN1C=CC(=C2C(=O)c3ccccc3C2=O)C=C1,i
O=C(O)CCC(=O)CCC(=O)c1ccccc1,i
C=CCn1c(CCNC(=O)c2cccs2)nnc1SCC(=O)c1ccc(Br)cc1,i
CC(C)C12CN3CC(C(C)C)(CN(C1)C3c1cccnc1)C2=O (stereo unspecified),i
CCOC(=O)c1oc2nc(CC(C)C)c3c(c2c1N)CCC3,0.1
CCOc1ccccc1C(=O)Nc1nnc(CC)s1,i
Cc1ccc(N2CCN(C(=O)c3ccccc3Br)CC2)c(C)c1,i
Cn1c(=O)c2c(nc(NCc3ccco3)n2Cc2ccc(Cl)cc2Cl)n(C)c1=O,0.3
O=C(CN1CCOCC1)Nc1ccc(S(=O)(=O)NC2CCCCC2)cc1,i
COc1ccc(C2OC34CCCCC3C(C#N)(C#N)C2(C#N)C(=N)O4)cc1 (stereo unspecified),1.2
Cn1c(=O)[nH]c(=O)c2c1nc(N1CCOCC1)n2CCSc1nc2ccccc2[nH]1,i
CS(=O)(=O)Nc1cccc(C(=O)CC2(O)C(=O)Nc3ccc(Br)cc32)c1 (stereo unspecified),0.7
Nc1cc(N)c(OCC(F)(F)F)cc1OCC(F)(F)F,0.4
Cc1ccc(S(=O)(=O)NCC2CCC(C(=O)NCc3ccc4c(c3)OCO4)CC2)cc1 (stereo unspecified),0.2
O=C(NCCCN1CCOCC1)c1ccc(CS(=O)(=O)c2cccc(C(F)(F)F)c2)o1,1.8
Cc1nn(Cc2ccccc2)c(C)c1C(=O)OCC(=O)c1cc(C)n(C2CC2)c1C,i
O=C(CCSCc1ccccc1Cl)N1CCN(c2cccc(Cl)c2)CC1,i
Cc1c(C(=O)NCc2ccccc2Cl)oc2c1C(=O)CCC2,i
COc1ccc2c(c1)C1NC(=S)NC(C)(O2)C1C(=O)Nc1ccccc1C (stereo unspecified),i
Cn1sc(NC(=O)c2ccccc2Cl)nc1=O,0.1
COc1ccc(NC(=O)c2csc3c2CCCC3)cc1,0.2
O=C(CSc1ncnc2c1cnn2-c1ccccc1)Nc1ccc2c(c1)OCO2,i
O=C1c2ccccc2C(=O)N1Cc1cc(-c2ccccc2Cl)no1,0.7
O=C1CCCN1CCC1CCN(C(=O)Nc2ccccc2)CC1,1.3
CCOC(=O)CC(C(=O)OCC)P(=O)(c1ccccc1)c1ccccc1 (stereo unspecified),0.3
COc1ccc2cc(C(=O)OC(C)C)sc(=O)c2c1OC,0.6
COc1ccc(C2(C(=O)N3CCCC3)CCOCC2)cc1OC,1.0
Cc1ccc(N=Nc2c(=O)[nH]n3c(C)cc(C)nc23)cc1,i
CC1CCN(C(C)C(=O)Nc2ccccc2-c2ccccc2)CC1 (stereo unspecified),i
NC(=O)c1ccccc1NC(=O)CN1CCOCC1,i
# The list goes on:
SMILES,H5N1 antiviral
CCc1cc(Br)ccc1NC(=O)C1CCCO1 (stereo unspecified),2.4
CCOc1ccc(S(=O)(=O)n2nnc3ccccc32)cc1C,1.4
Cc1cc(OCC(=O)O)c2cccc(C)c2n1,i
CCCCn1c(O)c(C(CC)=NCCN2CCOCC2)c(=O)[nH]c1=O,1.8
COc1ccc(S(=O)(=O)Nc2ccccc2C)cc1,i
Cc1ccc(C(=O)CC(C(=O)O)n2ccc(C)n2)cc1 (stereo unspecified),i
Cc1cc(OCc2nc(-c3cccnc3)no2)c(C)cc1Br,i
Cc1ccc(C)c(-n2ccnc2SCC(=O)O)c1,i
Cc1ccc(C(=O)COc2ccccc2C(=O)Nc2ccccc2)cc1,1.3
COc1ccc(S(=O)(=O)N2CCCC(C(=O)Nc3ccc(NC(=O)c4ccccn4)cc3)C2)cc1 (stereo unspecified),i
Cc1nn(-c2ccccc2)c2sc(C(=O)c3c(N)n(C)c(=O)n(C)c3=O)cc12,0.4
CN(c1ccc(C(=O)NCCSCc2ccccc2)cc1)S(=O)(=O)c1ccccc1,0.2
COC(=O)C1C(=O)c2c([nH]c(C(=O)OC3CCCC3C)c2C)CC1C (stereo unspecified),0.5
O=C(Cn1cnc2scc(-c3ccccc3)c2c1=O)N1CCOCC1,i
O=Cc1cn(-c2ccccc2)nc1-c1cc2ccccc2oc1=O,i
O=C(CSc1nnnn1C1CCCC1)NCc1ccccc1,i
COc1ccccc1CC(=O)Nc1ccc(OC)c(OC)c1,i
CCCc1nc2ccccc2c(=O)n1/N=C/c1ccc(O)cc1,3.1
CCOc1ccc(NC(=O)CN(c2ccc(OC)cc2)S(C)(=O)=O)cc1,0.8
CC(=O)N(Cc1cc(=O)[nH]c2ccccc12)c1ccccc1,1.9
CCCNc1nc(C)nc2c1cnn2CCc1ccccc1,0.1
CC1(C)CC(=O)C(N=Nc2ccc3ncsc3c2)=C(O)C1,i
COc1ccc(OC)c(NC2c3ccccc3C(=O)N2Cc2ccc3c(c2)OCO3)c1 (stereo unspecified),i
COc1ccc(-c2noc(COc3ccc(C)c(C)c3)n2)cc1OC,1.5
Cc1cc(C(=O)CN2C(=O)NC(c3ccccc3)(c3ccccc3)C2=O)c(C)n1Cc1ccccc1,0.1
COc1ccccc1NC(=O)Cc1csc(NC(=S)Nc2ccc(C)cc2)n1,0.2
COc1cccc(C2CC(c3cccs3)Nc3ncnn32)c1 (stereo unspecified),i
CCc1ccc(OCC(=O)N(C)CCC#N)c(Br)c1,0.6
O=C(O)CCc1ccc(-c2ccc(F)cc2)n1NC(=O)c1ccco1,0.2
CC(=O)C1C(=O)CC(C)(O)C(C(C)=O)C1c1ccc(N(C)C)cc1 (stereo unspecified),i
CCn1c(-c2ccc3[nH]c(C)c(C)c3c2)n[nH]c1=S,i
NC(=O)CN1C(=O)C2C3C=CC(C3)C2C1=O (stereo unspecified),i
CCC(NC(=O)c1ccccc1NC(=O)c1ccco1)C(=O)NC1CCCCC1 (stereo unspecified),i
Cc1c(=O)n(OCc2ccccn2)c2ccccc2[n+]1[O-],0.4
Cc1nnc(N2C(=O)c3cccc4cccc(c34)C2=O)s1,i
CN1CCN(CCCNC(=O)c2cc3c(-c4ccc(Cl)cc4)nn(C)c3s2)CC1,i
O=C(COc1ccc(Cl)cc1)NCc1nnc(SCC(=O)N2CCCCC2)o1,0.1
CCOc1ccc(Cn2c(=O)oc3ccc(C)cc32)cc1OC,i
CCc1cccc(NC(=O)CCS(=O)(=O)c2cccc3nonc23)c1,0.2
O=C(C1CCCN(Cc2ccncc2)C1)N1CCc2ccccc2C1 (stereo unspecified),1.2
O=C(O)CCCCCNC(=O)c1ccncc1,i
O=C(CN(Cc1ccccc1F)S(=O)(=O)c1ccc(Cl)cc1)NCCCO,i
OCCn1c(SCCOc2ccccc2)nc2ccccc21,3.1
CCc1ccc2[nH]c(=O)c(CN(CCCO)C(=O)NCc3ccccc3)cc2c1,0.3
Cc1cc(NC(=O)CCC(=O)N(c2ccccc2)C(C(=O)NCC2CCCO2)c2cccnc2)no1 (stereo unspecified),i
Cc1cccc(OCCOc2ccc(/C=N/NC(=O)Cc3nnc(N)s3)cc2)c1,0.2
NC(CC(=O)O)c1cccc(OCc2ccccc2)c1 (stereo unspecified),i
CCOC(=O)c1cnc(-c2ccccc2)nc1N(C)C,i
COc1ccc(CN/C(C)=C(/C#N)C(N)=O)cc1OC,0.4
O=C(O)C1C(C(=O)Nc2ccc(Cl)cc2)C2C=CC1C21CC1 (stereo unspecified),i
Cc1c(C(=O)NCc2ccccc2)oc2ccc(S(=O)(=O)N3CCC4(CC3)OCCO4)cc12,0.3
Cc1occc1C(=O)N1CCCc2ccccc21,0.2
COc1cc(C(O)c2nc3ccccc3n2C)cc(OC)c1OC (stereo unspecified),0.3
COc1ccc(OC)c2c1sc(=NC(=O)CN1C(=O)CCC1=O)n2C,1.4
CC1(C)CC(=O)c2sc(NC(=O)C3CC3)nc2C1,i
Cc1cccc(OCCOCCN2CCOCC2)c1C,0.4
O=C1CC(c2ccc(Cl)c(Cl)c2)CC(O)=C1C=NCCN1CCNCC1 (stereo unspecified),i
Cc1nn(CCc2n[nH]c(=S)n2-c2ccc(F)c(Cl)c2)c(C)c1[N+](=O)[O-],0.7
CCOc1cc2[nH]c(=S)n(CCCN3CCOCC3)c(=O)c2cc1OCC,i
CC1(C)Cc2c(c(=S)nc(-c3ccccc3)n2CCO)CO1,0.3
# (next part)
SMILES,H5N1 antiviral
N/C(=N\OC(=O)C1CCCCC1)c1cccc([N+](=O)[O-])c1,0.1
CCOc1ccccc1C1CC(=O)NC2=C1C(=O)CCC2 (stereo unspecified),i
Cc1ccc(O)c(C2=NOC(O)(C(F)(F)F)C2)c1 (stereo unspecified),i
COc1cc(CO)cc(Br)c1OCc1cccnc1,0.9
CCC(C)N(CCNC(=O)CC1Oc2ccccc2NC1=O)C1CCCCC1 (stereo unspecified),i
Cc1ccc(F)cc1NC(=O)c1cccc2nccnc12,3.3
Cc1ccc(OC2=NS(=O)(=O)c3ccccc32)cc1,i
CCOC(=O)CSc1ccc2nnc(-c3ccncc3)n2n1,3.6
FC(F)(F)c1nnc2ccc(N3CCCC3)nn12,i
CC(=O)N1CCN(c2nc3cc4c(cc3nc2NS(=O)(=O)c2ccccc2)OCCO4)CC1,i
COc1cccc(C(=O)Cn2c(Br)nc3c2c(=O)n(C)c(=O)n3C)c1,2.4
Cc1ccc2c(c1)c(CC(=O)Nc1ccc(C)c(F)c1)c(C(=O)O)n2C,0.3
CCCC(C)NNC(=O)c1cc2ccccc2[nH]1 (stereo unspecified),1.7
Cc1cc(C)nc(NC(=O)c2cnc3sccn3c2=O)n1,1.6
CCCCN(C(=O)CNC(=O)c1ccco1)C(C(=O)NC1CCCCC1)c1ccc(OC)cc1OC (stereo unspecified),i
Cc1ccc(C(=O)Nc2nc(-c3cc(Cl)sc3Cl)cs2)cc1,2.0
COc1cccc(/C=N/N2CCN(c3ccccc3OC)CC2)c1,i
CN(C1CCCCC1)S(=O)(=O)c1ccc(-n2cnnn2)cc1,i
FCCCOc1ccc(-c2ccnc(-c3ccccc3)n2)cc1,1.9
C=CCOc1nc(N(C)C)nc(N(C)C)n1,i
CCOC(=O)N1CCN(Cc2nc3c(c(=O)n(C)c(=O)n3C)n2Cc2cccc(C)c2)CC1,0.9

# The list is partial, so the mix of outcomes need not match the whole.
